# FGF22 binding: binders of human FGF22 protein, primary screen, FGF22 synaptogenesis inhibitor project, biophysical, thermal shift, single point; AID 651658, 2012; 340,000 tested, 1.5% active; calls only at 9.99 µM; Fibroblast growth factor 22 (Homo sapiens), Q9HCT0; recombinant FGF22 thermal shift, SYPRO orange fluorescence; percent of sucrose octasulfate shift, DMSO zero;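 active = melting point raised past a set limit in the mean and every replicate; three in four hits are not shown here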
# Target sequence (Q9HCT0 whole entry, looked up): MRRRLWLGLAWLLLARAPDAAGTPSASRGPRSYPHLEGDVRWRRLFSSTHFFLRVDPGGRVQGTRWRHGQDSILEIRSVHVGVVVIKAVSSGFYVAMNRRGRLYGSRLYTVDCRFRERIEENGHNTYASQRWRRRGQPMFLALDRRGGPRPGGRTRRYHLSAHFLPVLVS
# rRNA inh HTS: reduced GFP signal of wild-type E. coli, primary screen, bacterial rRNA inhibitor project, GFP/RFP fluorescence, OD600, single point; GFP signal change (wild-type ribosome), % (concentration not given with the values); E. coli WT GFP vs humanized-ribosome RFP mutants, 24 h; stronger effect = lower value; DMSO median 0, no signal -100; 350,000 tested, 1.6% active;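 active = significant combined selectivity score with lowered wild-type GFP, culture density cut under 30%, mutant RFP and density less affected; inactive = any of these conditions unmet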; note: one replicate is shown; some compounds called inactive have numbers as strong as hits
# MLL AF4-AF9 inh: inhibitors of AF4 peptide binding to AF9, primary screen, biochemical, AlphaScreen, biotin-AF4 peptide, FLAG-AF9, single point | Protein AF-9 (Homo sapiens), P42568 | inhibition, % at 10 µM | 350,000 tested, 0.47% active | AID 651704, 2012;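 active = every replicate reaching a set inhibition limit, whatever the replicate mean, cut at about 25% in these data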;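 note: 0% = plate neutral control median and 100% = total signal loss; the record names both 10 and 1 µM as test concentration; the first replicate is given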
# Target sequence (P42568 whole entry, looked up): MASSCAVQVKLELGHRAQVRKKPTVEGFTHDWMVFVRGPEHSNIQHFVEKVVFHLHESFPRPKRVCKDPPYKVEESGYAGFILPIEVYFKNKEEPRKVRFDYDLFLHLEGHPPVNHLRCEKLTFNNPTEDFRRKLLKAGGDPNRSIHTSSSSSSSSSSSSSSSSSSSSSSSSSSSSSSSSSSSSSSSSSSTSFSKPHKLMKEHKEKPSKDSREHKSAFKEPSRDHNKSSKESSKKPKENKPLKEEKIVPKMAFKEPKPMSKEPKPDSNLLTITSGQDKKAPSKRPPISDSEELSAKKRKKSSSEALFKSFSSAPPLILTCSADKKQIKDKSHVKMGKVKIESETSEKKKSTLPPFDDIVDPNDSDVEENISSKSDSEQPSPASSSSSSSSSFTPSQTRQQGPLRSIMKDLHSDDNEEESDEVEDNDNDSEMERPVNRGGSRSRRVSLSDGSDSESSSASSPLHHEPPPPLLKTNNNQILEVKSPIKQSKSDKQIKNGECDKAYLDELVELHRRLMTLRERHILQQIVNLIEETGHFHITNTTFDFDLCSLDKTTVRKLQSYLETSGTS
# rRNA inh HTS OD600: also measured in rRNA inh HTS; calls as there; OD600 change, %; measured here: OD600 growth;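 optical density of the mix in the first replicate; 0 = DMSO median and -100 = no signal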
# rRNA inh HTS RFP: recorded beside rRNA inh HTS, whose call it bears; RFP signal change, %; measured here: RFP humanized mutant strains;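 first replicate; 0 = DMSO median and -100 = no signal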
# Active calls of the source: *; i = inactive; & = joins results of further samples. These rows are one share of the data; count on the stated rates, not on these rows.
SMILES,FGF22 binding,rRNA inh HTS,rRNA inh HTS OD600,rRNA inh HTS RFP,MLL AF4-AF9 inh
C[C@@H]1CN([C@@H](C)CO)C(=O)c2cccc(NC(=O)Nc3ccc4c(c3)OCO4)c2O[C@H]1CN(C)Cc1ccc(C(=O)O)cc1,i,0,5,-2.0,-2.9
CC(C)(C)OC(=O)N1CCC[C@@H]1C(=O)N1CCC[C@H]1C(=O)NCc1ccccc1,i,10,11,2.3,-3.1
CN1C[C@H](O)COC[C@H]2O[C@@H](CC(=O)N3CCN(c4ccccc4)CC3)CC[C@@H]21,i,-1,2,2.6,0.9
COC(=O)C1=C(C)N(Cc2ccccc2C(F)(F)F)C(=NCc2ccc(C(F)(F)F)cc2)NC1CCc1ccccc1 (configuration not stated),i,-9,-8,12,1.8
Cc1ccc(-c2ccc3c(c2)O[C@H](CN(C)Cc2ccc(C(=O)O)cc2)[C@@H](C)CN([C@H](C)CO)S3(=O)=O)cc1,i,-5,13,-4.9,-1.0
CC(C)NC(=O)N(C)C[C@H]1Oc2ncc(C#CC3(O)CCCC3)cc2C(=O)N([C@H](C)CO)C[C@@H]1C,i,3,10,0.3,-1.0
CN(C)c1ccc2c(c1)[C@@H]1C[C@H](CC(=O)NCC3CC3)O[C@@H](CO)[C@@H]1O2,i,1,7,2.9,-12
COc1ccc2c3c(n(C)c2c1)[C@@H](CO)N(C(C)=O)CC31CCN(C(=O)C2CCOCC2)CC1,i,-2,5,-4.2,-15
CO[C@@H]1CN(C)C(=O)c2cc(NC(=O)C3CCC3)ccc2OC[C@@H](C)NC[C@@H]1C,i,0,2,1.0,-1.5
O=C(Nc1ccccc1F)N[C@H]1CC[C@@H](CCNS(=O)(=O)c2ccc(F)cc2)O[C@@H]1CO,i,1,-5,0.7,-1.1
CN(CCc1ccccc1)C(CCc1ccccc1)C(=O)Nc1ccc2c(c1)OCCO2 (configuration not stated),i,-13,-8,-4.1,0.3
CCc1nc2c(OCCc3cccc(OC)c3)cccn2c1N(C)C(=O)c1ccc(OC)cc1,i,-5,-18,2.4,3.9
COCC(=O)N1C[C@H]2[C@@H](c3ccccc31)[C@@H](CO)N2C(=O)C1CCOCC1,i,1,-5,-3.8,0.0
CCCCC1C(=O)NN(c2ccccc2)C1=O (configuration not stated),i,1,6,1.0,2.9
C[C@@H]1CN([C@@H](C)CO)C(=O)c2cc(NC(=O)CCCCCC(=O)Nc3ccccc3N)ccc2O[C@H]1CN(C)Cc1ccc2c(c1)OCO2,i,-2,-12,-1.1,-1.2
C[C@H](NC(=O)C[C@@H]1CC[C@H]2[C@@H](COC[C@@H](O)CN2Cc2ccc(C(F)(F)F)cc2)O1)c1ccccc1,i,1,-10,0.1,0.3
COc1cccc(S(=O)(=O)N(C)C[C@H]2Oc3ncc(-c4cccc(C(=O)N(C)C)c4)cc3C(=O)N([C@@H](C)CO)C[C@H]2C)c1,i,7,-6,0.4,-6.5
O=C(NC1CCCCC1)N[C@@H]1C=C[C@H](CC(=O)N2CCOCC2)O[C@H]1CO,i,1,4,-1.9,-0.5
COc1ccc(S(=O)(=O)Nc2ccc3c(c2)C(=O)N([C@@H](C)CO)C[C@H](C)[C@@H](CN(C)C(=O)Cc2ccccc2)OCCCC[C@@H](C)O3)cc1,i,-2,-12,2.4,-1.4
COc1cccc(-c2cnc3c(c2)C(=O)N([C@H](C)CO)C[C@H](C)[C@H](CN(C)Cc2cccc(C)c2)O3)c1,i,-5,-6,3.5,4.2
COc1ccc(C2C(C#N)=C(N)Oc3cc(O)ccc32)cc1 (configuration not stated),i,0,8,0.8,1.7
C[C@@H]1CCCCO[C@H](CN(C)C)[C@@H](C)CN([C@H](C)CO)C(=O)c2cc(NC(=O)Nc3ccc(C(F)(F)F)cc3)ccc2O1,i,0,6,-3.2,1.6
COc1ccc(C2CCCCC2SCC(=O)O)cc1OC (configuration not stated),i,6,-1,1.3,0.3
COc1ccc(CN(C)C[C@@H]2OCCCC[C@@H](C)Oc3ccc(NC(=O)Nc4cccc5ccccc45)cc3C(=O)N([C@@H](C)CO)C[C@H]2C)cc1,i,-1,4,4.1,-4.8
CC(C)CC#Cc1ccc([C@H]2[C@@H](CO)N3C(=O)CN(C(=O)Nc4cc(F)ccc4F)C[C@@H]23)cc1,i,-16,-44,32,-2.6

# In the list so far, these have fluorine:
SMILES,FGF22 binding,rRNA inh HTS,rRNA inh HTS OD600,rRNA inh HTS RFP,MLL AF4-AF9 inh
COC(=O)C1=C(C)N(Cc2ccccc2C(F)(F)F)C(=NCc2ccc(C(F)(F)F)cc2)NC1CCc1ccccc1 (configuration not stated),i,-9,-8,12,1.8
O=C(Nc1ccccc1F)N[C@H]1CC[C@@H](CCNS(=O)(=O)c2ccc(F)cc2)O[C@@H]1CO,i,1,-5,0.7,-1.1
C[C@H](NC(=O)C[C@@H]1CC[C@H]2[C@@H](COC[C@@H](O)CN2Cc2ccc(C(F)(F)F)cc2)O1)c1ccccc1,i,1,-10,0.1,0.3
C[C@@H]1CCCCO[C@H](CN(C)C)[C@@H](C)CN([C@H](C)CO)C(=O)c2cc(NC(=O)Nc3ccc(C(F)(F)F)cc3)ccc2O1,i,0,6,-3.2,1.6
CC(C)CC#Cc1ccc([C@H]2[C@@H](CO)N3C(=O)CN(C(=O)Nc4cc(F)ccc4F)C[C@@H]23)cc1,i,-16,-44,32,-2.6

# The list goes on.
SMILES,FGF22 binding,rRNA inh HTS,rRNA inh HTS OD600,rRNA inh HTS RFP,MLL AF4-AF9 inh
O=C(OCCSCCOC(=O)C1CC=CCC1)C1CC=CCC1 (configuration not stated),i,-10,-7,4.6,2.3
C[C@@H]1CN([C@@H](C)CO)C(=O)c2cc(NC(=O)CCCN(C)C)ccc2O[C@@H](C)CCCCO[C@H]1CN(C)S(=O)(=O)c1ccccc1,i,2,-1,0.2,2.0
CC1(c2nnnn2-c2ccc3c(c2)OCCO3)CCC(=O)N1CCCN1CCOCC1 (configuration not stated),i,17,13,-3.9,-1.7
O=C(NC1CCCCC1)N[C@@H]1CC[C@@H](CCNS(=O)(=O)c2ccccc2)O[C@H]1CO,i,-1,1,-2.1,1.0
COCC(=O)Nc1ccc2c(c1)C(=O)N(C)C[C@H](OC)[C@H](C)CN(Cc1ccccc1)[C@H](C)CO2,i,3,2,-0.2,4.4
C[C@H]1CN([C@@H](C)CO)C(=O)c2cc(NC(=O)Nc3cccc4ccccc34)ccc2O[C@@H]1CN(C)S(=O)(=O)c1ccc(F)cc1,i,3,-1,2.9,2.1
O=C(C[C@H]1CC[C@@H]2[C@H](COC[C@H](O)CN2Cc2ccccc2F)O1)NC1CCC1,i,5,-4,-1.7,-0.6
O=C(O)c1ccccc1Cc1ccc(F)c2ccccc12,i,-27,-25,0.6,6.8
C[C@H]1CN([C@@H](C)CO)C(=O)c2cccc(NS(=O)(=O)c3cn(C)cn3)c2O[C@H]1CN(C)C(=O)Nc1ccc2c(c1)OCO2,i,3,4,1.1,-4.5
COc1ccc(CN2C[C@@H](C)[C@@H](OC)CN(C)C(=O)c3cc(NC(=O)c4nc5ccccc5s4)ccc3OC[C@H]2C)cc1,i,-7,1,7.9,4.3
O=C1/C(=C\c2ccc([N+](=O)[O-])cc2)CS(=O)(=O)C/C1=C/c1ccc([N+](=O)[O-])cc1,i,12,11,3.4,-14
CC(C)NC(=O)N(C)C[C@H]1Oc2c(NC(=O)C3CCOCC3)cccc2C(=O)N([C@H](C)CO)C[C@@H]1C,i,2,0,-3.6,-2.4
CO[C@@H]1CN(C)C(=O)c2cc(NC(C)=O)ccc2OC[C@@H](C)N(Cc2ccccn2)C[C@H]1C,i,1,7,-1.3,-2.2
Cc1cc(OCCCN2CCC(C(O)(c3ccccc3)c3ccccc3)CC2)ccc1Br,i,-46,-76,-17,0.9
C[C@H](CO)N1C[C@H](C)[C@H](CN(C)C(=O)Nc2cccc3ccccc23)Oc2ccc(NC(=O)CCC(F)(F)F)cc2CC1=O,i,-2,-12,1.7,-1.0
COc1ccc2c3c(n(C)c2c1)[C@H](CO)N(Cc1cccc(Cl)c1)CC31CN(C(C)=O)C1,i,-3,-9,-3.3,-0.1
Cc1ccc(S(=O)(=O)Nc2cccc3c2O[C@@H](CN(C)C(=O)Nc2ccccc2)[C@H](C)CN([C@@H](C)CO)C3=O)cc1,i,2,0,-2.0,-1.9
COc1cccc(-c2ccc3n(c2=O)C[C@@H]2[C@@H](CO)[C@H](C(=O)N(C)C)N(C(=O)C4CC4)[C@H]32)c1,i,6,6,-0.6,0.2
Cc1noc(C)c1NC(=O)Nc1ccc2c(c1)C(=O)N([C@H](C)CO)C[C@H](C)[C@@H](CN(C)C(=O)Nc1ccc(F)cc1)O2,i,1,3,-2.3,7.4
C[C@@H]1CN([C@@H](C)CO)C(=O)Cc2cc(NC(=O)NC3CCCCC3)ccc2O[C@H]1CN(C)C(=O)Nc1ccccc1,i,0,3,0.3,-0.7
COc1ccc(-c2nc3ccc(Br)cn3c2Cc2ccccc2C(F)(F)F)cc1OC,i,-6,-8,-4.2,-0.3
COc1ccc(NC(=O)Nc2cccc3c2O[C@@H](CN(C)Cc2ccc(C(F)(F)F)cc2)[C@@H](C)CN([C@H](C)CO)C3=O)cc1,i,-3,-23,-1.1,1.0
COc1cccc(NC(=O)N(C)C[C@H]2OCc3cn(nn3)CCCC(=O)N([C@@H](C)CO)C[C@H]2C)c1,i,-2,-1,-1.4,-1.1
CCCNC(=O)C1(C)CCN(C(=O)COc2ccc(C(C)(C)C)cc2)C1 (configuration not stated),i,-3,2,-0.7,2.7
CO[C@@H]1CN(C)C(=O)c2cc(NS(=O)(=O)c3ccccc3)ccc2OC[C@@H](C)N(C)C[C@H]1C,i,4,13,1.9,-1.0
# Remaining list, next part.
SMILES,FGF22 binding,rRNA inh HTS,rRNA inh HTS OD600,rRNA inh HTS RFP,MLL AF4-AF9 inh
COc1cc(C2c3cc4c(cc3OC(NNC(N)=O)C2C)OCO4)cc(OC)c1OC (configuration not stated),i,0,-4,-2.9,1.2
CC(C)CC#Cc1cnc2c(c1)C(=O)N([C@H](C)CO)C[C@@H](C)[C@H](CN(C)C(=O)Nc1cc(F)ccc1F)O2,i,0,-4,4.3,3.8
C[C@@H]1CN([C@@H](C)CO)C(=O)c2cc(NS(C)(=O)=O)ccc2O[C@@H]1CN(C)Cc1ccc(Oc2ccccc2)cc1,i,-2,-8,1.7,3.5
CNC[C@H]1Oc2ccc(NS(=O)(=O)c3ccc(Cl)cc3)cc2CC(=O)N([C@@H](C)CO)C[C@@H]1C,i,3,2,-3.5,-1.7
C[C@@H]1CN([C@H](C)CO)C(=O)Cc2cc(NS(=O)(=O)c3cn(C)cn3)ccc2O[C@H]1CN(C)S(C)(=O)=O,i,7,14,0.7,-0.1
C[C@H]1CN([C@@H](C)CO)C(=O)CCCn2nncc2CO[C@@H]1CN(C)S(=O)(=O)c1ccccc1,i,7&2,21&-5,-2.3&0.2,-1.5&-1.3
COCC(=O)N(C)C[C@@H]1Oc2ncc(C#Cc3ccccc3)cc2C(=O)N([C@@H](C)CO)C[C@H]1C,i,3,5,-3.0,-3.0
Cc1cccc(NC(=O)c2nc[nH]c2C(=O)NC[C@H](C)O)c1,i,-6,8,-2.7,1.4
COc1ccc(NC(=O)N[C@@H]2CC[C@H](CCNC(=O)Cc3ccncc3)O[C@@H]2CO)cc1,i,1,9,0.5,0.7
C[C@@H]1CN([C@@H](C)CO)C(=O)Cc2cc(NC(=O)CCCCCC(=O)Nc3ccccc3N)ccc2O[C@@H]1CN(C)Cc1ccc(Cl)c(Cl)c1,i,-6,-10,5.4,1.7
COc1ccc(NC(=O)N(C)C[C@@H]2Oc3c(NS(=O)(=O)c4ccc(OC)cc4)cccc3C(=O)N([C@H](C)CO)C[C@@H]2C)cc1,i,-1,-5,1.6,5.0
COc1ccc(C(C(=O)Nc2c(C)cccc2C)N2CCN(C)CC2)cc1 (configuration not stated),i,23,21,3.3,-1.8
C[C@@H]1CN([C@@H](C)CO)C(=O)CCCn2cc(nn2)CO[C@@H]1CN(C)Cc1cccc(C(F)(F)F)c1,i,-2,0,1.6,3.4
O=C(C[C@@H]1CC[C@H](NS(=O)(=O)c2ccccc2)[C@@H](CO)O1)NCc1ccc(Cl)c(Cl)c1,i,-9,-11,1.4,0.1
C[C@@H](NC(=O)C[C@H]1CC[C@H](NC(=O)C2CCOCC2)[C@@H](CO)O1)c1ccccc1,i,2,3,-1.2,0.9
Cc1ccc(S(=O)(=O)N[C@@H]2CC[C@@H](CCn3cc(C(C)C)nn3)O[C@H]2CO)cc1,i,1,-1,-2.6,3.2

# 2 entries from above in another layout:
# Screens in order – FGF22 binding	rRNA inh HTS	rRNA inh HTS OD600	rRNA inh HTS RFP	MLL AF4-AF9 inh
CC(C)CC#Cc1cnc2c(c1)C(=O)N([C@H](C)CO)C[C@@H](C)[C@H](CN(C)C(=O)Nc1cc(F)ccc1F)O2
→ i	0	-4	4.3	3.8
C[C@@H]1CN([C@@H](C)CO)C(=O)Cc2cc(NC(=O)CCCCCC(=O)Nc3ccccc3N)ccc2O[C@@H]1CN(C)Cc1ccc(Cl)c(Cl)c1
→ i	-6	-10	5.4	1.7

# Screening data (PubChem BioAssay)
